Assay outcomes deposited in PubChem BioAssay by ICCB-Longwood Screening Facility, Harvard Medical School.
Vaccinia pol inh: blocks vaccinia virus processive DNA synthesis. AID 493162. in vitro processive DNA synthesis, absorbance read-out; active compounds read low; some inactives read as strong as hits. normalized absorbance, % (test concentration not listed). actives 0.94% (n = 46,000);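 active = replicate mean up to 90% and picked by the depositor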;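 also: 100% = median of the test wells of a plate; 100 nL library stock went into each well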
The depositor's hits bear a star; & = joins results of further samples. Only part of the results is shown. The share of hits here may be higher or lower than overall.

SMILES | Vaccinia pol inh
CSC(=S)N(C)c1nc2ccccc2s1 | 94
O=P(O)(c1ccccc1)c1nccn1-c1ccc(Cl)nn1 | 99
COc1ccc(CN2CC(C(=O)O)CC2=O)cc1 (stereo not given) | 103
N#CC1C(=O)NC(c2ccccc2)C=C1c1ccccc1 (stereo not given) | 98
O=C(O)C12CC3CC(C1)CC(c1ccccc1)(C3)C2 | 91
COc1ccc(Cl)cc1S(=O)(=O)N1CCCCC1C (stereo not given) | 99
CC(C)(C)Nc1ncnc2c1cnn2Cc1ccccc1 | 84
CCc1ccc(C(O)(c2ccccc2)C(CN2CCOCC2)c2ccccc2)cc1 (stereo not given) | 102
O=C(CN1C(=O)c2ccccc2C1=O)Oc1ccc2ccccc2c1 | 104
O=C(NCc1ccsc1)C1CCCCN1 (stereo not given) | 117
N#CCCS(=O)(=O)c1ccc(Oc2ccc(S(=O)(=O)CCC#N)cc2)cc1 | 104
Cc1cc2cc(CNC(=O)C(C)Oc3ccccc3)ccc2n1C (stereo not given) | 100
CC(C)CN(CC(C)C)S(=O)(=O)N1CCC(C(=O)N2CCc3ccccc3C2)CC1 | 110
COc1ccc(CNC(=O)CSCc2ccccc2F)cc1 | 100
CN(C)CCC(=O)c1ccc2c(c1)OCCCO2 | 99
c1ccc(C2NCCS2)cc1 (stereo not given) | 101
COC(=O)c1cc2sccc2n1CC(=O)Nc1cc(OC)cc(OC)c1 | 101
CCc1nnc(NC(=O)CSc2nccn2-c2ccc(Cl)cc2)s1 | 99
CC1(c2ccccc2)CC(C)(C)N2C(=O)/C(=C3\SC(=O)NC3=O)c3cccc1c32 (stereo not given) | 101
CCCc1cc(=O)oc2c(C)c3oc(C)c(C)c3cc12 | 99

Among those listed so far, these have a Cl atom.
SMILES | Vaccinia pol inh
O=P(O)(c1ccccc1)c1nccn1-c1ccc(Cl)nn1 | 99
COc1ccc(Cl)cc1S(=O)(=O)N1CCCCC1C (stereo not given) | 99
CCc1nnc(NC(=O)CSc2nccn2-c2ccc(Cl)cc2)s1 | 99

Following part
SMILES | Vaccinia pol inh
CN1CCN(c2ccc(NS(=O)(=O)c3cccc4nonc34)cc2)CC1 | 103
FC(F)(F)c1cc(Cl)c2nnc(C(F)(F)Cl)n2c1 | 103
CN(C)C(=O)Oc1cccc([N+](C)(C)C)c1 | 90&94
CC1CCCC(NC(=O)COC(=O)c2ccccc2C(F)(F)F)C1C (stereo not given) | 104
CC(=O)Nc1ccc(S(=O)(=O)N2CCN=C2SC(C)c2ccccc2)cc1 (stereo not given) | 101
Cc1cc(C)n(CCS(=O)(=O)c2ccc(Cl)cc2)n1 | 113
CCN(C(=O)Cn1nc(C)n2c(cc3cc(C)ccc32)c1=O)c1ccccc1 | 100
CC(=O)N1Cc2ccccc2CC1C(=O)O (stereo not given) | 99
C=CCn1c(=S)sc2c(=O)n(/N=C/c3ccc(Cl)cc3Cl)c(C)nc21 | 102
Cc1ccc(N2C(=N)S/C(=C/c3sccc3C)C2=O)cc1C | 100
O=C(O)COc1ccccc1/C=N/N1CCN(Cc2ccc(Cl)cc2)CC1 | 100
O=C(NC1CCCCC1)C(C(=O)c1ccccc1)n1ccccc1=O (stereo not given) | 99
CC(C)OC(=O)C(C)Nc1n[nH]c(=O)[nH]c1=O (stereo not given) | 101
CC(=O)Nc1ccc2oc(-c3ccc(C#N)cc3)cc(=O)c2c1 | 105
O=C(O)CSCC(=O)Nc1ccccc1 | 105
CS(=O)(=O)N(CC(=O)NCc1ccco1)c1ccccc1Br | 100
Cc1cc(C(N)=O)c2ccccc2n1 | 103
Cc1c(/C=N/n2cnnc2)c2ccccn2c1C(=O)c1ccc(F)cc1 | 101
Cc1ccc(-c2noc(C(C)c3ccc(CC(C)C)cc3)n2)cc1 (stereo not given) | 99
C=C(C)c1cccc(C(C)(C)NC(=O)NCC2CCCO2)c1 (stereo not given) | 100
CCN(CC)c1nc2ccccc2c(=O)s1 | 98
O=c1c(I)cn(Cc2ccccc2)c(=O)n1Cc1ccccc1 | 100
O=C(Cn1nc(-c2ccccc2)ccc1=O)NCc1cccs1 | 92
CCc1c(C)c(C#N)c2[nH]c3ccccc3n2c1=O | 100
O=C(NCCc1ccccc1)C1CCN(S(=O)(=O)N2CCCCC2)CC1 | 96
C=CCN1C(c2ccccc2)=CSC1/N=C/c1ccccc1 (stereo not given) | 99
Cc1c(C(=O)N2CCOCC2)[nH]c2c1C(=O)CC(c1ccc(Cl)cc1)C2 (stereo not given) | 98
CCC(Sc1nc2ncccc2[nH]1)C(=O)NC1CCC(C)CC1 (stereo not given) | 106
O=C(COC(=O)Cc1ccc(Cl)cc1)NCC1CCCO1 (stereo not given) | 100
O=C(Cc1cn2ccsc2n1)NCCc1ccc(F)cc1 | 96
COC(=O)C1=CN2C(C=C1)C(C(=O)OC)(C(=O)OC)[C@@H](c1cccnc1)[C@@H]2C#N (stereo not given in full) | 101
O=C(c1ccco1)N1CCC(N(CCc2ccccc2)Cc2ccccc2)CC1 | 107
Cc1cc(C)c(S(=O)(=O)N2CCCC2=O)c(C)c1 | 94
CCOC(=O)C1CCN(Cc2ccc(Cl)nc2)CC1 | 93
CN(C)S(=O)(=O)c1ccc(S(=O)(=O)N2CCC3(CC2)OCCO3)cc1 | 100
O=C(CC1Sc2ccc(C(F)(F)F)cc2NC1=O)Nc1ccc(O)cc1 (stereo not given) | 101
COc1cccc(-c2nc3cc(OC)c(OC)cc3c(=O)o2)c1 | 100
O=C(OCCN(C1=NS(=O)(=O)c2ccccc21)c1ccc(Cl)cc1)c1cccs1 | 112
NC(=O)CC(=O)c1c(O)c2ccccc2n(-c2ccccc2)c1=O | 101
N#CC(C(=O)N1CCCCC1)C(CC(=O)c1ccccc1)c1cccc(Br)c1 (stereo not given) | 101

2 entries from above, reformatted:
> COc1cccc(-c2nc3cc(OC)c(OC)cc3c(=O)o2)c1
  Vaccinia pol inh = 100

> O=C(OCCN(C1=NS(=O)(=O)c2ccccc21)c1ccc(Cl)cc1)c1cccs1
  Vaccinia pol inh = 112

New compounds follow:
SMILES | Vaccinia pol inh
O=C(NCCCN1CCN(Cc2ccccc2)CC1)c1ccc(C(F)(F)F)cc1 | 112
CCN1Cc2cccc(CNc3cc(C)cc(C)c3)c2C1 | 102
O=C(c1ccco1)N1CCN(Cc2ccccc2)CC1 | 101&112
CC(=O)N1CN(C2CCS(=O)(=O)C2)Cc2c1sc1c2CCCC1 (stereo not given) | 106
COc1ccccc1-c1c(C)nn2c(SCC(=O)NCc3ccc4c(c3)OCO4)cc(C)nc12 | 99
O=C(Nc1nc(=O)c2ccccc2s1)c1ccccc1 | 100
O=C(CSc1ncnc2c1oc1ccccc12)Nc1ccccc1 | 100
CS(=O)(=O)N1CCN(c2ccccn2)CC1 | 100
COc1ccc(CC(=O)NC(=S)Nc2cccnc2Cl)cc1 | 103
Cc1oc(C(C)(C)C)cc1C(=O)N1CCCC1C(=O)O (stereo not given) | 100
c1csc(CNc2ncnc3nc[nH]c23)c1 | 101
CCN(CC)CCNC(=O)c1ccc(N)cc1 | 100&100
CCOC(=O)c1c(C)nsc1Nc1cc(C)ccc1C | 101
O=C(O)c1ccc2c(c1)C(=O)N(CCC1=CCCCC1)C2=O | 89
O=C(Nc1ccc(C23CC4CC(CC(C4)C2)C3)cc1)c1cccs1 | 100
Cc1ccc(-n2c(=O)c3sccc3n(CC(=O)c3ccc(Br)cc3)c2=O)cc1F | 100
Cc1ccc(C(=O)NCCC2=CCCCC2)cc1 | 100
COC(=O)c1ccccc1NC(=O)CCc1ccc(OC)cc1 | 100
CC1(C)C2CCC(C2)C1(C)NC(=S)NCC1CCCO1 (stereo not given) | 104
CC(NC(=O)Nc1ccccc1Br)(C(F)(F)F)C(F)(F)F | 100
OCc1cc(Cl)cc(Cl)c1 | 115
CCOC(=O)N1CCN(CC(O)COCc2ccc(Cl)cc2)CC1 (stereo not given) | 98
CCCNC(=O)C1CCC(CNS(=O)(=O)c2cccc3nsnc23)CC1 (stereo not given) | 69
O=C(Nc1ccccc1)Nc1ccc2nnsc2c1 | 98
CCCCn1c(=NC(=O)C(C)(C)C)c(C(=O)OCC)cc2c(=O)n3ccccc3nc21 | 107
O=C(NC1CCCC1)C(c1ccncc1)N(Cc1cccs1)C(=O)c1csnn1 (stereo not given) | 92
COc1cc(-c2nnc(SCC(=O)c3ccco3)n2C)cc(OC)c1OC | 108
O=C(O)C1C2CCC(C2)C1C(=O)c1ccccc1 (stereo not given) | 101
NC(=O)c1cc2cc(Br)cc(Br)c2oc1=O | 100
COc1ccc(-n2cnc3cc(C(=O)NCC4CCCO4)ccc32)cc1 (stereo not given) | 105
CCc1ccccc1NS(=O)(=O)c1ccc2c(c1)CC(C)N2C(=O)C1CC1 (stereo not given) | 95
Cc1c(C)c2c(c(C)c1O)CCC(C)(CCCC(C)CCCC(C)CCCC(C)C)O2 (stereo not given) | 100
CC(C)(C)c1cc(-n2nc3ccccc3n2)c(O)c(C(C)(C)C)c1 | 96
Cn1c(=O)cc(OCC(=O)NCCC2=CCCCC2)c2ccccc21 | 97
CSc1cccc(NC(=O)CN(C)S(=O)(=O)c2ccc3c(c2)CC(C)N3C(C)=O)c1 (stereo not given) | 105
Cn1c(SCc2nc(-c3cccs3)no2)nnc1-c1ccncc1 | 106
O=C(O)CCC(=O)OC[C@@H](NC(=O)C(Cl)Cl)[C@H](O)c1ccc([N+](=O)[O-])cc1 | 100
Cc1ccc(CNC(=O)CSc2nc(NC3CCCCC3)c3ccccc3n2)cc1 | 99
Cc1ccc(/C=N/n2cnc3sc4c(c3c2=O)CCCC4)o1 | 100
COc1ccc(OCCn2cc(C#N)c3ccccc32)cc1 | 101

Looked up by structure from the entries so far, 14 records:
SMILES | Vaccinia pol inh
COc1cc(-c2nnc(SCC(=O)c3ccco3)n2C)cc(OC)c1OC | 108
COc1ccc(-n2cnc3cc(C(=O)NCC4CCCO4)ccc32)cc1 (stereo not given) | 105
Cc1ccc(/C=N/n2cnc3sc4c(c3c2=O)CCCC4)o1 | 100
Cn1c(SCc2nc(-c3cccs3)no2)nnc1-c1ccncc1 | 106
O=C(Nc1ccccc1)Nc1ccc2nnsc2c1 | 98
CCCCn1c(=NC(=O)C(C)(C)C)c(C(=O)OCC)cc2c(=O)n3ccccc3nc21 | 107
O=C(O)CCC(=O)OC[C@@H](NC(=O)C(Cl)Cl)[C@H](O)c1ccc([N+](=O)[O-])cc1 | 100
Cc1ccc(CNC(=O)CSc2nc(NC3CCCCC3)c3ccccc3n2)cc1 | 99
COc1ccc(OCCn2cc(C#N)c3ccccc32)cc1 | 101
O=C(O)C1C2CCC(C2)C1C(=O)c1ccccc1 (stereo not given) | 101
CCc1ccccc1NS(=O)(=O)c1ccc2c(c1)CC(C)N2C(=O)C1CC1 (stereo not given) | 95
CCOC(=O)N1CCN(CC(O)COCc2ccc(Cl)cc2)CC1 (stereo not given) | 98
NC(=O)c1cc2cc(Br)cc(Br)c2oc1=O | 100
O=C(NC1CCCC1)C(c1ccncc1)N(Cc1cccs1)C(=O)c1csnn1 (stereo not given) | 92

Continuation.
SMILES | Vaccinia pol inh
O=C(CSc1ccccc1Cl)NC1CCCCCC1 | 104
O=P(CCN1CCOCC1)(c1ccccc1)c1ccccc1 | 100
COc1ccc(-c2[nH]nc(SC)c2C#N)cc1 | 100
CCOC(=O)N1CCC(NC(=O)c2cc3c(-c4ccccc4F)nn(C)c3s2)CC1 | 104
C=CCn1c2ccc(Br)cc2c2nc3ccccc3nc21 | 100
Oc1ccc(/C=C2/NC(=S)Nc3nc(Nc4ccccc4)sc32)cc1 | 100
CCOC(=O)/C(C#N)=C1\CCCCCN1 | 96
Cc1ccc(-c2c3c(nc4sc(C(N)=O)c(N)c24)CCCC3)o1 | 96
O=C(Cn1nc(Cc2cccnc2)c2ccccc2c1=O)NCCc1ccc(Cl)cc1 | 89
O=C(O)c1ccc2nc(-c3ccccc3)sc2c1 | 101
CCOc1ccc(NC(=O)C(C#N)=C2CCCCCC2)cc1 | 101
Cc1c(C(=S)Nc2ccccc2)sc2ccccc12 | 100
O=C(COc1ccc(Oc2ccccc2)cc1)NCc1cn2ccccc2n1 | 99
OC(CNc1nc2ccccc2s1)c1ccccc1 (stereo not given) | 103
Cc1cc(Nc2nc3ccccc3nc2Cl)n(-c2ccccc2)n1 | 94
Cc1ccccc1NCC(=O)N1CCc2ccccc21 | 101
c1csc(-c2nnc(N3CCOCC3)c3ccccc23)c1 | 90
CN(C)S(=O)(=O)NCc1ccc2[nH]c3c(c2c1)CCCC3 | 101
CS(=O)(=O)N1CCC(C(=O)N2CCCCC2)CC1 | 97
O=S(=O)(CC(O)COc1ccccc1)c1ccccn1 (stereo not given) | 100
O=c1[nH][nH]c(=O)n1CCCc1cc2cccc3ccc4cccc1c4c32 | 63*
COc1cc2cc(C)nc(Cc3cccc4ccccc34)c2cc1OC | 100
O=C1C2CC=CCC2C(=O)N1CNc1ccccc1 (stereo not given) | 100
CCCc1[nH]n(-c2nc3ccccc3s2)c(=O)c1C(C)=Nc1ccc(C(=O)OCC)cc1 | 100
COc1cccc2cc(-c3nnc(Nc4ccccc4F)s3)c(=O)oc12 | 98
CCOC(=O)N1CCC(NC(=O)Cn2ncc3c(=O)oc4ccc(C)cc4c32)CC1 | 98
COc1ccc(C(=O)/C=C2/NCC3c4ccccc4CCN3C2=O)cc1 (stereo not given) | 91
CCn1ncc(C2=NOC(C(=O)NC3CCCCC3)C2)c1C (stereo not given) | 103
CCCn1c(CCCNC(=O)c2ccc(OC)c(OC)c2)nc2ccccc21 | 98
COc1ccc2c(c1C)CCC1=C(C)C(=O)CCC12C (stereo not given) | 95
CCC(C)NC(=O)C1CCCN(S(=O)(=O)c2cccc3cccnc23)C1 (stereo not given) | 99
Clc1cccc(Cl)c1NC1=NCCN1 | 101&101
O=C1Nc2cc(C(=O)N3CCC(Cc4ccccc4)CC3)ccc2Sc2ccccc21 | 81
O=C(O)CCCc1ccc(N(CCCl)CCCl)cc1 | 98
CC(=O)Oc1ccc2cc(-c3nc(-c4ccccc4)c(C)s3)c(=O)oc2c1 | 102
Cc1ccc(-c2nc3ccccc3[nH]2)cc1N=Cc1cc(Br)ccc1O | 99
O=c1c2ccccc2nc(SCc2ccccc2F)n1CCc1ccccc1 | 100
O=C(C1CC1)N1CCc2ccccc21 | 114
CCOc1ccccc1C(=O)N1CCN(C(c2ccccc2)c2ccccc2)CC1 | 100
COc1ccc(C(=O)NCCCc2nc3ccccc3[nH]2)cc1OC | 99
CCc1nc2cc(C)nn2c2nc3ccccc3n12 | 105
